B2AR arrestin = agonists driving beta-arrestin recruitment to human beta2-adrenergic receptor; 0.02% of 330,000 active; Potency, µM (series often up to 46.1 µM), inactives show at the highest dose activation, most hits filed as activators; beta-arrestin recruitment to beta2AR, cell-based reporter;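 note: potency is the fitted concentration of half-maximal effect; 0% = DMSO controls and full agonism = EC100 isoproterenol or metaproterenol; nearly all actives have a fitted effect of over 65% in size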
Giardia kill = kills Giardia lamblia; Giardia lamblia trophozoite viability; activity change, % at 7.66 µM, hits read low; 0.15% of 340,000 active; in the data active = activity change below about -80%; inconclusive = between about -30% and that limit;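 note: parasites exposed to compound for two days anaerobically before the ATP read; % is set by controls: 0 for no effect and ±100 for the full control effect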
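Trophozoites 100 cells/well + cpd; 48 hrs, 37 deg C, anaerobic. ATPLite 1-Step added, 15-30 min RT, luminescence read (ATP-based viability).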
KCNH2 3.1 inh = blocks the human KCNH2 3.1 channel isoform; U2OS KCNH2 3.1, thallium flux FluxOr; stronger effect = lower value; 0.95% of 340,000 active; activity change, % (tested at about 1.8 µM); AID 720553;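 active = maximum activity change below -70%; inconclusive = maximum activity change from -70% to -50%; inactive = maximum activity change above -50%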;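 note: thallium influx rate constant from kinetic fluorescence after stimulation buffer; % is set by controls: 0 for no effect and ±100 for the full control effect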
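Thallium flux via FluxOr fluorescence (Red40 quencher, 45 min loading) in U2OS cells virally expressing the KCNH2 3.1 isoform (1.77 x 10^8 /mL virus, overnight at 37 C). Rate constants from 2-min kinetic reads post-stimulation, normalised to positive and negative controls.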
FBPA coupling cs = counter-screen for Giardia aldolase inhibitors: coupling enzyme system; coupling enzyme system counterscreen, AmpLite Red fluorescence; activity change, negative = inhibition, % at 58.2 µM, hits read low; 0.67% of 290,000 active; AID 2472; in the data active = activity change below about -30%; note: % is set by controls: 0 for no effect and ±100 for the full control effect
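Coupling enzymes only (glyceraldehyde-3-phosphate) + compound, at 57.5 uM final, 10 min RT; add substrate/coupling/AmpLite Red mix, 20 min RT; fluorescence ex 525/em 598 nm. Actives flag coupling-system interference.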
TRPV1 ag = agonists of human vanilloid receptor 1 (TRPV1) | Q8NER1 | TRPV1-expressing cells, Fluo-8 calcium influx, agonist mode | activation, % at 8.33 µM | 0.19% of 320,000 active | AID 540275; in the data active = activation above about 80%; inconclusive = between about 30% and that limit; note: 0% is about no effect
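TRPV1-expressing cells were cultured overnight at 35.5C and loaded with Fluo-8 calcium dye for 40 to 90 min at room temperature. After a 10 s baseline, compound was added and calcium influx was read kinetically for 3 min (ex 480/em 520 nm).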
CXXC DNA block = inhibitors of human MLL CXXC domain-DNA interaction. Potency, µM (top dose mostly 115 µM), without a hit: top-dose activity change, negative = inhibition, actives largely listed as inhibitors. MLL-CXXC / FITC-HOXA9 DNA fluorescence polarization. AID 2662. 0.037% of 290,000 active; active = well fitted inhibition curve with a large enough effect in the polarisation, with a control signal flat, not every such curve was filed as active; inconclusive = small, poorly fitted or top-dose-only effect, or effect the other way, or a change in a side signal; inactive = no such curve, though single readings can be large or run the other way; the % refers to the polarisation; note: potency is the fitted concentration of half-maximal effect
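Fluorescence polarization: 7 uM MLL-CXXC (stock) preincubated 5 min with compounds, then 50 nM fluorescein-HOX-A9 DNA (stock) added; 30 min ambient. Buffer 50 mM Tris-HCl pH 7.5, 50 mM NaCl, 1 mM DTT, 0.05% BSA.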
GALK inhibitor = blocks human galactokinase activity; P51570; Purified GALK, Kinase-Glo residual ATP luminescence; Potency, µM (top dose mostly 57.5 µM), for the others: at the top dose activity change, negative = inhibition, hits mostly inhibitors; 0.007% of 270,000 active; AID 1868; note: potency is the fitted concentration of half-maximal effect; % is set by controls: 0 for no effect and ±100 for the full control effect
Target sequence (P51570 whole entry, looked up): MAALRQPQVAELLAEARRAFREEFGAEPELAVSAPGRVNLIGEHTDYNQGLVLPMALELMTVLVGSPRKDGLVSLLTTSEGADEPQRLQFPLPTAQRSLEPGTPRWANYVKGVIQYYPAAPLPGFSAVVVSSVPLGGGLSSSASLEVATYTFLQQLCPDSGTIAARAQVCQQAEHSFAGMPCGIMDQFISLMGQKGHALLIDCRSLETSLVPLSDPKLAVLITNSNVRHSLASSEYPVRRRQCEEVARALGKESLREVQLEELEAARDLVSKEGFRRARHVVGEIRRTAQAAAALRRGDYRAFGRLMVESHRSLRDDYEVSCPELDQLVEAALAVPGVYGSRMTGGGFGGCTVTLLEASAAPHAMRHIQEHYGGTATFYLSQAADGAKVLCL
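Luminescence from leftover ATP (Ultra-Glo luciferase/luciferin) served as read-out after a 1 h room-temperature reaction of 5 nM GALK with 35 uM ATP and 100 uM galactose.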
Menin-MLL TR inh = displaces Texas Red mutant MLL peptide from human menin; O00255; Menin + Texas Red MLL mutant peptide, fluorescence polarization; Potency, µM (titrated, usually from 61.6 µM), inactives show top-dose FP activity change, negative = inhibition, actives largely listed as inhibitors; 0.23% of 270,000 active; active = well fitted inhibition curve with a large enough effect in the polarisation, with a control signal flat, not every such curve was filed as active; inconclusive = small, poorly fitted or top-dose-only effect, or effect the other way, or a change in a side signal; inactive = no such curve, though single readings can be large or run the other way; the % refers to the polarisation; note: potency is the fitted concentration of half-maximal effect; % of control where 0% means no effect; many of its hits are not listed in these tables
USP2a inh = inhibitors of human ubiquitin-specific protease USP2a. Potency, µM (doses to about 38.3 µM), inactives show at the top dose activity change, negative = inhibition, hits mostly inhibitors. AID 463254. USP2 core, Ub-CHOP2 coupled fluorogenic reporter, 485/531. 0.01% of 330,000 active. O75604;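 note: potency is the fitted concentration of half-maximal effect; plate controls were DMSO wells for no effect and full inhibition by NEM control for full effect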
Target sequence (O75604 whole entry, looked up): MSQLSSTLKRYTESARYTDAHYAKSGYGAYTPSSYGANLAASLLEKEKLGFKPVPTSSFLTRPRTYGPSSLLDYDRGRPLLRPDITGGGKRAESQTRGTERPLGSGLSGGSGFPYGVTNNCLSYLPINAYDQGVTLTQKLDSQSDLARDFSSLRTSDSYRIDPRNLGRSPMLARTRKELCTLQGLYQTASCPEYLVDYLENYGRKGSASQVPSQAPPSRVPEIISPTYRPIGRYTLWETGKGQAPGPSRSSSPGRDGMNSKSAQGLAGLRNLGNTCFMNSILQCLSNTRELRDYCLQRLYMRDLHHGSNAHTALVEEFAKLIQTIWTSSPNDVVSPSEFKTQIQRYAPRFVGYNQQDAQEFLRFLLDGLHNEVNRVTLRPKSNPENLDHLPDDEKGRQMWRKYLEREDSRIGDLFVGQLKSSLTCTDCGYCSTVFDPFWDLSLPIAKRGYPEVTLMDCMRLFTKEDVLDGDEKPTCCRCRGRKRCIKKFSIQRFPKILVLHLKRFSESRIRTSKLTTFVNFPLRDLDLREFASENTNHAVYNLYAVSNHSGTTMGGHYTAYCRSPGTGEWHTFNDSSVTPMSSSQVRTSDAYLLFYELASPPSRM
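USP2 core (10nM final) preincubated 30min RT with compound in 20mM Tris-HCl pH 8.0, 2mM CaCl2, 2mM beta-mercaptoethanol, 0.05% CHAPS; 25nM Ub-CHOP2 plus 25nM reporter substrate added, fluorescence (Ex485/Em531) read after 60min.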
KCNH2 WT inh = blocks the wildtype human KCNH2 potassium channel; U2OS, BacMam KCNH2, thallium flux FluxOr; stronger effect = lower value; activity change, % at 1.84 µM; 0.37% of 340,000 active; AID 720551;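 active = maximum activity change below -70%; inconclusive = maximum activity change between -70% and -50%; inactive = maximum activity change above -50%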; note: % is set by controls: 0 for no effect and ±100 for the full control effect
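U2OS cells were transduced with wild-type KCNH2 virus (2.03 x 10^8 / mL) for 4 h at room temperature, then cultured overnight at 37 C. Thallium flux was read with FluxOr dye. Rate constants were normalized to DMSO controls.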
Active calls of the source: *; i = inactive; ? = inconclusive; nt = no result given; [ ] = remark or other dose. Unless noted, calls come from the whole dose curve; as a rule, active = well fitted curve in the direction sought with a large enough effect; inconclusive = small, poorly fitted or top-dose-only effect, or another doubt; inactive = no such curve, though single readings can be large; an effect the other way counts as inactive or inconclusive. An excerpt; rates above refer to the full screens.

SMILES	B2AR arrestin	Giardia kill	KCNH2 3.1 inh	FBPA coupling cs	TRPV1 ag	CXXC DNA block	GALK inhibitor	Menin-MLL TR inh	USP2a inh	KCNH2 WT inh
Cc1cc(N2CCN(C3CCCCC3)CC2)n2nc(C)nc2n1	-0.7%	6	-5	-1	10	-2%	nt	-1%	2%	21
Cn1c(CN2CCOCC2)nnc1SCC(=O)Nc1ccc([N+](=O)[O-])cc1O	0.1%	-14	-15	nt	0	14%	-3%	nt	0%	-4
COC(=O)c1scc(S(=O)(=O)C(C)(C)C)c1N	-0.1%	-14	1	2	-1	-6%	-2%	nt	0%	-2
CCOc1ccc(NC(=O)CCNC(=O)c2ccco2)cc1	-1.0%	-3	1	1	5	5%	-2%	-5%	2%	-1
COc1ccc(-c2nc(N)nc(C(F)(F)F)c2-c2csc(C)n2)c(O)c1	0.5%	-27	-3	-1	0	0%	3%	nt	-2%	-5
CC(C)OC(=O)c1cc2c(=O)[nH]c(C(Cl)(Cl)Cl)nc2o1	0.1%	4	-1	10	-5	9%	-1%	?	0%	0
CC(C)(C)c1nn(-c2ccccc2)c2nc(Cl)c(C=O)cc12	-0.2%	-15	-1	0	-6	-7%	-3%	-2%	0%	5
Cc1cc(CN2CCC(n3nccc3NC(=O)c3ccccc3C)CC2)n[nH]1	-0.1%	15	-14	2	2	-2%	-2%	-20%	-1%	4
O=c1oc2ccc3ccccc3c2c2c1SC(C(F)(F)F)C2 (stereo not given)	-0.3%	2	12	4	5	8%	0%	-8%	3%	0
O=C(NNS(=O)(=O)c1ccc(F)cc1)c1cc(Cl)ccc1O	3.6%	?	20	0	1	-23%	-3%	?	0%	9
COc1cc(C2NC(=S)NC(C)=C2C(=O)Nc2ccc(C)cc2)ccc1O (stereo not given)	-0.2%	-15	16	-2	24	-18%	5%	25%	4%	2
O=C(CNCC1CCCO1)Nc1ccccc1N1CCOCC1 (stereo not given)	0.1%	4	-1	2	2	1%	1%	8%	-2%	-14

Next part; it opens with the 4 that closed the last part.
SMILES	B2AR arrestin	Giardia kill	KCNH2 3.1 inh	FBPA coupling cs	TRPV1 ag	CXXC DNA block	GALK inhibitor	Menin-MLL TR inh	USP2a inh	KCNH2 WT inh
O=c1oc2ccc3ccccc3c2c2c1SC(C(F)(F)F)C2 (stereo not given)	-0.3%	2	12	4	5	8%	0%	-8%	3%	0
O=C(NNS(=O)(=O)c1ccc(F)cc1)c1cc(Cl)ccc1O	3.6%	?	20	0	1	-23%	-3%	?	0%	9
COc1cc(C2NC(=S)NC(C)=C2C(=O)Nc2ccc(C)cc2)ccc1O (stereo not given)	-0.2%	-15	16	-2	24	-18%	5%	25%	4%	2
O=C(CNCC1CCCO1)Nc1ccccc1N1CCOCC1 (stereo not given)	0.1%	4	-1	2	2	1%	1%	8%	-2%	-14
CN1CCN(c2ccccc2NC(=O)Cc2ccc(Cl)cc2)CC1	0.5%	19	5	-3	3	3%	-1%	-1%	5%	-13
COc1cc2c(cc1OC)CN(C(=O)c1cc(S(=O)(=O)N3CCOCC3)c(Cl)cc1Cl)CC2	-0.2%	-7	3	nt	7	5%	-7%	nt	0%	0
CN=c1scc(-c2ccccc2F)n1/N=C(\C)c1cccnc1	0.5%	?	-8	2	14	-1%	-2%	1%	4%	3
Oc1c(Br)cc(Br)cc1C=NCc1ccccc1	-1.0%	11	-8	-4	0	14%	-3%	?	1%	19
CCc1ccc(N2CC(C(=O)NCc3ccc4c(c3)OCO4)CC2=O)cc1 (stereo not given)	0.6%	1	6	1	13	-3%	-2%	-9%	-1%	4
Cc1ccc(N2CC(C(=O)N3CCN(Cc4ccc5c(c4)OCO5)CC3)CC2=O)cc1 (stereo not given)	-0.7%	-17	9	1	0	-1%	-1%	-4%	-1%	4
CN(CC(=O)Nc1cccc(F)c1)C(=O)c1cccc(S(=O)(=O)N2CCN(c3ccccc3)CC2)c1	0.4%	5	-3	nt	-3	17%	3%	nt	-3%	-4
Cc1cnc(C(=O)Nc2ccc(C(C)C)cc2)cn1	0.3%	15	8	-3	?	1%	8%	14%	0%	8
Cc1cccc(N(C(=O)c2csnn2)C(C(=O)NC2CCCCC2)c2ccccn2)c1C (stereo not given)	-0.6%	20	2	-5	2	8%	9%	-30%	1%	8
COc1cc(NC(=O)c2ccccc2)c(OC)cc1NC(=O)CSc1[nH]c(=O)cc(C)c1C#N	-0.5%	18	-10	4	-4	11%	-1%	6%	0%	1
O=C(Cc1ccc(Cl)cc1)Nc1cccc(-c2nnc(-c3ccco3)o2)c1	-0.5%	-2	-22	3	nt	32%[activator]	-6%	nt	1%	-8
O=[N+]([O-])c1ccccc1Nc1c2ccccc2nc2ccccc12	-0.4%	-15	-19	1	4	4%	-1%	?	1%	-2
Cc1ccc(C(=O)NCc2ccco2)cc1[N+](=O)[O-]	-0.3%	0	15	2	8	12%	1%	7%	1%	0
COc1ccc(CC(=O)NCc2nnc(SCC(=O)Nc3nccs3)n2C)cc1	-0.1%	9	-25	0	-1	-7%	4%	-7%	-1%	-1
O=C(Nc1ccc2c(c1)OCO2)c1nn(-c2ccccc2)c(=O)c2ccccc12	-0.3%	2	-6	3	nt	4%	0%	2%	2%	1
CCn1c(CNc2ccc(F)cc2)nnc1SCC(=O)Nc1ccccc1OC	-0.9%	-26	6	-3	-1	0%	-2%	-1%	0%	0
Cc1ccc(-c2nnc(-c3ccc4c(c3)OCO4)o2)cc1	-0.6%	-12	-3	0	?	-5%	5%	1%	1%	2
O=C(Nc1ccccc1-c1ccccc1)c1cnccn1	-0.1%	-7	-12	2	nt	-5%	0%	-1%[11.7 µM]	2%	15
O=C(NNC(=O)C1C2C=CC(C2)C1C(=O)O)c1ccccc1O (stereo not given)	-0.1%	0	-3	0	16	0%	-1%	20%	1%	0
COC(=O)[C@@H]1C[C@H]1[C@@H](NS(=O)(=O)c1ccc(-c2ccccc2)cc1)c1ccccc1	nt	nt	nt	-2	nt	nt	nt	9%	nt	nt
Nc1ncnc(Nc2cc(Cl)cc(Cl)c2)c1[N+](=O)[O-]	1.6%	-1	4	1	2	-6%	2%	4%	-1%	0
CC(=O)NCCc1nc2cc(NC(=O)c3ccccc3)ccc2n1C	0.3%	-19	11	0	3	-6%	1%	2%	0%	-3
CN(/N=C/c1ccc(-c2ccc([N+](=O)[O-])cc2)o1)c1ccccc1	-0.7%	11	-72*	-2	14	-20%	1%	?	10%	-38
CCOc1ccccc1NC(=O)c1ccccc1NS(C)(=O)=O	-0.2%	0	-3	4	1	11%	-4%	-4%	-2%	-2
Cc1ccc(-c2cc(C(F)F)n3ncc(C(=O)N4CCc5ccccc5C4)c3n2)cc1	0.1%	-29	-3	0	2	3%	-3%	-23%	-3%	-23
CCOc1ccc(-n2nc3c(=O)n(CCN4CCCCC4)nc(C)c3c2C)cc1	-0.1%	8	-3	13	-1	1%	nt	-8%	4%	2
CC1CCN(c2nc3nonc3nc2Nc2ccc(F)cc2)CC1	0.4%	11	1	0	8	-20%	5%	?	3%	-4
COc1cccc(OC)c1-c1nn(-c2ncc(C(F)(F)F)cc2Cl)c(=O)o1	0.1%	-5	-36	-1	5	-1%	0%	nt	10%	5
CCc1ccc(N(CC(=O)NC2CC2)S(=O)(=O)c2ccc(C)cc2)cc1	0.4%	16	4	nt	8	2%	-3%	nt	1%	-8
Clc1ccc(C2=NCCN2)cc1	0.3%	9	-6	-1	1	28%	-1%	-4%	1%	2
COCCCNC(=S)NC1CC2CCCC(C1)N2Cc1cccs1 (stereo not given)	-0.9%	-12	-18	1	nt	-8%	-3%	nt	0%	0
Cc1nc(CSc2nnc3scc(-c4ccccc4)n23)cs1	0.0%	3	-1	1	-3	-1%	0%	0%	0%	-2
COc1cc(NC(=O)c2c(F)cccc2F)c(Cl)cc1Cl	0.5%	9	-21	0	3	-2%	2%	1%	1%	-3
O=C(Nc1cccc2ncccc12)C(Cl)(Cl)Cl	0.2%	-5	5	1	-1	10%	-2%	-1%	5%	14
C=CCNc1nc(S(=O)Cc2ccc(C)cc2)nc2c1CCCC2 (stereo not given)	-0.3%	-19	-2	-3	0	13%	0%	-14%	3%	2
O=C(CC1C(=O)NCCN1CC1CCCCC1)NCCc1ccc(F)cc1 (stereo not given)	-0.4%	-20	1	-3	2	12%	-2%	?	2%	i
Fc1ccc(-c2nnc(N3CCOCC3)c3ccccc23)cc1F	-0.9%	-3	-32	-1	0	8%	13%	-16%	2%	3
Cc1ccc(-n2cc(-c3ccccc3)c3c(N4CCOCC4)ncnc32)cc1	0.1%	-7	5	1	24	0%	-2%	-16%	0%	-3

Assay outcomes from PubChem.
